GIV Gai3 FP: inhibitors of GIV GBA-motif binding to rat Galpha-i3 | P08753 | Galpha-i3/FITC-GIV peptide fluorescence polarization, 90 min; stronger effect = lower value; scaled: aluminum fluoride 0%, vehicle 100% | percent of control (FP), % (test concentration not listed) | 0.42% of 210,000 active;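 active = replicate mean at 85% of control or lower, very high polarization wells dropped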;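 note: wells of about 15 µL received 100 nL stock; the first replicate is given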
Target sequence (P08753 whole entry, looked up): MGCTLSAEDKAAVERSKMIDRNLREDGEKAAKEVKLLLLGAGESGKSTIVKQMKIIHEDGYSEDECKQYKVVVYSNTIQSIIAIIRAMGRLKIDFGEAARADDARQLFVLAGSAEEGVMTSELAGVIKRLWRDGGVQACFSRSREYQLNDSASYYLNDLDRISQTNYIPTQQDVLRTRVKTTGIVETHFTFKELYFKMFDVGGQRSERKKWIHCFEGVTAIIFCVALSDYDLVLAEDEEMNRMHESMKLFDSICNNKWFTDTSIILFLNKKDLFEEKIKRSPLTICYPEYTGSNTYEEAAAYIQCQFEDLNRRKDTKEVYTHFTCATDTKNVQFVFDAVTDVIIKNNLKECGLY
Sa growth 42C: blocks Staphylococcus aureus growth | S. aureus RN4220 growth, OD600, 20 h, 42 °C; stronger effect = lower value | relative growth, % (concentration not given with the values) | 0.53% of 170,000 active | AID 720641;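 active = growth at 42 °C up to 50% and 20 or more points under that at 30 °C, or under 10% at both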;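 note: 300 nL library stock went into each well; scaled to the means of positive and negative controls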
HCMV NEC inh: cytomegalovirus nuclear egress complex inhibition | HTRF UL50-UL53 interaction, normalized percent inhibition | inhibition, % (no concentration beside the values) | 0.15% of 190,000 active;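 active = both replicates at 50% or more, plus weaker picks with an unusually low signal ratio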;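 note: stock transfer was 100 nL into about 20 µL; 0% = negative control wells and 100% = wells with untagged competitor protein; inactives centre near -12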
Sa growth 42C second temp: further read-out of Sa growth 42C, marked with its call; relative growth, %; measured here: growth at 30 °C;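 optical density after 20 h as mean of two plates; 100% = untreated growth and lower means inhibition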
Active calls of the source: *; x = no result given; & = joins results of further samples.

SMILES	GIV Gai3 FP	Sa growth 42C	Sa growth 42C second temp	HCMV NEC inh
O=C1c2ccccc2CC1Sc1nnc(-c2ccccn2)c(-c2ccccn2)n1 (stereo not drawn)	104	92	84	-49
Cc1cccc(-c2nc(CCNC(=O)COc3ccccc3)cs2)c1	101	87	88	x
COc1cc(OC)c(OC)cc1/C=C1\N=C(c2c(-c3ccccc3)noc2C)OC1=O	107	x	x	-17
COc1ccc(C2Nc3ccccc3C(=O)N2c2ccc(C)cc2)cc1COc1ccc(Cl)cc1 (stereo not drawn)	108	x	x	-9
CC(=O)Nc1nc(C)c(-c2csc(Nc3ccc(S(=O)(=O)Nc4cc(C)on4)cc3)n2)s1	102	x	x	-20
COc1ccc(Cc2c(Cl)ncnc2Cl)cc1	101	100	91	10
Cc1oc(-c2ccc(C(=O)Nc3ccc(F)cc3F)cc2)nc1COc1ccccc1	105	113	83	x
CCOc1ccc(N2C(=O)CC3(CC(C(=O)OCc4ccccc4)=NN3)C2=O)cc1 (stereo not drawn)	105	99	83	-5
Cc1ccc(NC(=O)NC(=O)c2c(-c3snnc3C)noc2C)cc1	108	113	100	-24
Cc1oc(-c2ccc(C(=O)NCCN3CCOCC3)cc2)nc1CSc1ccccc1	100	109	86	-41
Cc1ccc(-n2ncc3c(NCc4ccccc4)ncnc32)cc1Cl	103	117	90	x
O=C(CCC1CCCCC1)Nc1ncn[nH]1	103	99	81	-11
c1ccc(CN2CCCN(c3nc4c(c(NCCN5CCOCC5)n3)CCCC4)CC2)cc1	100	90	77	3
O=C(O)c1ccc(N2CCN(c3ccc(F)cc3)CC2)c(NS(=O)(=O)c2cc(F)ccc2F)c1	105	x	x	-21
Oc1ccc2ccccc2c1CN1CCN(Cc2ccc3c(c2)OCO3)CC1	x	95	89	-18
O=C(NCCc1ccccn1)C(F)(F)C1(F)OC(F)(F)C(F)(F)C1(F)F (stereo not drawn)	98	97	79	5
CCOC(=O)c1sc2nc(C(F)(F)F)nn2c1C	103	100	75	-1
Cc1cccc(-c2csc(-c3nc(-c4ccncc4)no3)c2-n2cccc2)c1	100	x	x	-20
Cc1cccc(N2C(N)=C(C#N)C(c3cc(C)ccc3C)C3=C2CCCC3=O)c1 (stereo not drawn)	112	106	99	6
CCOC(=O)Cn1nnnc1CN(Cc1cc2c(C)ccc(C)c2[nH]c1=O)C1CCCCC1	100	91	84	-27
COc1ccccc1C(OC(=O)c1cccs1)C(=O)NCc1ccco1 (stereo not drawn)	100	95	88	-28
Cc1ccc(S)cc1C	x	86	90	-9
CN1CCN(c2ccc(NC(=O)COc3ccc(Br)cc3)cc2)CC1	99	107	89	-16
COc1ccc(Br)cc1C(=O)Nc1ccc2oc(-c3cccnc3)nc2c1	110	94	91	5
CC(C)n1c(O)c(N=NC(=O)c2cccc(S(=O)(=O)N3CCCC3)c2)c2ccccc21	x	92	90	-38
O=C(NCCCN1CCN(Cc2ccccc2)CC1)c1cn2cc(C(F)(F)F)cc(Cl)c2n1	102	93	92	-21
Cn1c(C(=O)N2CCC(C(=O)NCCc3ccccc3)CC2)cc2sccc21	103	114	89	-14
O=C(COc1ccc(/C=N/NS(=O)(=O)c2ccccc2)cc1)N1CCOCC1	105	106	101	-6
O=C(NO)c1ccccc1	x	100	87	-26
COc1cc(NC(=O)Cn2nc([N+](=O)[O-])c(Br)c2C)c(OC)cc1Cl	94	x	x	-14
Cc1c(CC(=O)NCCc2ccc(Cl)cc2)c(=O)oc2c(C)c3occ(C(C)(C)C)c3cc12	103	109	95	-7
COc1cc2ccccc2cc1C(=O)Nc1ccc2oc(-c3cccc(Cl)c3Cl)nc2c1	101	103	91	-30
CCN1CCN(c2ccc(NC(=O)c3ccccc3Cl)c(C(=O)O)c2)CC1	104	x	x	11
C(=Nc1ccc2ccccc2c1)c1ccncc1	98	87	68	x
COc1ccc(OC)c(CNC(=O)c2c(C)oc3ncn(CC(C)C)c(=O)c23)c1	107	85	89	x
C=CCNC(=O)c1cnn2c(C(F)(F)F)cc(-c3cccs3)nc12	x	82	102	-16
Cc1cccc(-c2nc(N)n(C(=O)C(C)(C)C)n2)c1	103	x	x	-22
CCOC(=O)C/C(C)=N/c1ncn(-c2ccc(OC)cc2)c1C(=O)c1ccccc1	99	83	81	x
COc1ccc2oc(=O)c(C(=O)NCCO)cc2c1	104	95	82	-98
O=c1[nH][nH]c2nnc(-c3ccccc3)c(-c3ccccc3)c12	99	96	91	-140
COc1ccc2oc(=O)c(C(=O)N3CCN(C/C=C/c4ccccc4)CC3)cc2c1	107	x	x	-31
CCc1ccc(Nc2cc(-n3nc(C)cc3C)ncn2)cc1	113	x	x	-4
CCOc1cc(C(F)(F)F)c(C(=O)NCc2ccc(Cl)cc2)cn1	107	121	94	-9
O=C(Cn1ncc2c([nH]c3ccccc32)c1=O)NC1CCCC1	113	106	96	-38
CC(=O)Nc1ccc(S(=O)(=O)NCC2CC3CCC2C3)cc1 (stereo not drawn)	102	108	89	2
Cn1cnnc1SCC(=O)N1c2ccccc2C(C)(c2ccccc2)CC1(C)C (stereo not drawn)	97	x	x	-12
CCOc1ccc(C2N=C(Nc3cccc(C)c3C)Nc3nc(C)cc(=O)n32)cc1 (stereo not drawn)	98	x	x	-32
Brc1ccc(OCCSc2nnc(NC3CC3)s2)cc1	x	93	84	-12
O=C(Cn1c(=O)n(CC2CCCO2)c(=O)c2sc3ncccc3c21)NC1CCCCC1 (stereo not drawn)	111	x	x	-29
CCOC(=O)c1ccc2nc(NC(=O)CSc3nc(C)cc(=O)[nH]3)sc2c1	105	76	32	0
CC(C)(C)NC(=O)c1cccc2c1C(=O)N(C1CCCCC1)C2	102	89	97	6
COc1ccc(N2C(=O)CCSC23C(=O)N(Cc2ccc(F)cc2)c2ccccc23)cc1 (stereo not drawn)	108	93	85	x
CCNC(=O)N1C2CCC(C2)C1C(=O)OCC (stereo not drawn)	x	84	94	-21
O=C(Cc1ccccc1)N1CCN(c2ccc(N3CCCCC3)nn2)CC1	102	83	91	-94
Cc1ccccc1NC(=O)Cn1nc(-c2ccccc2)nc(Cc2ccccc2)c1=O	103	108	87	x
CCN(CC)CCNC(=O)c1ccc2c(=O)n3nc(Nc4cccc(Cl)c4C)sc3nc2c1	106	101	100	x
Cn1[nH]c(CSc2ccccc2)cc1=O	98	x	x	-18
CCCCSC1=C(C#N)C(=O)NCS1	108	90	83	-24
O=[N+]([O-])c1ccc2nc(N3CCCCC3)nc(-c3ccccc3)c2c1	105	x	x	2
Cc1ccsc1CN(C(=O)COc1cccc(C)c1C)C1CCS(=O)(=O)C1 (stereo not drawn)	105	119	92	-1

Gathered by group, those above containing a CF3 group.
SMILES	GIV Gai3 FP	Sa growth 42C	Sa growth 42C second temp	HCMV NEC inh
CCOC(=O)c1sc2nc(C(F)(F)F)nn2c1C	103	100	75	-1
O=C(NCCCN1CCN(Cc2ccccc2)CC1)c1cn2cc(C(F)(F)F)cc(Cl)c2n1	102	93	92	-21
C=CCNC(=O)c1cnn2c(C(F)(F)F)cc(-c3cccs3)nc12	x	82	102	-16
CCOc1cc(C(F)(F)F)c(C(=O)NCc2ccc(Cl)cc2)cn1	107	121	94	-9

Further results
SMILES	GIV Gai3 FP	Sa growth 42C	Sa growth 42C second temp	HCMV NEC inh
COC(=O)c1ccc(-n2nc(SC)sc2=S)cc1	x	105	99	0
CCC1(C)NC(=O)N(/N=C/C(C)=C/c2ccccc2)C1=O (stereo not drawn)	x	96	89	-92
COc1ccc(C(=O)NC(=Nc2c(C)cccc2C)SC)cc1	108	128	89	-19
CCn1c(-c2cccs2)nn(CN2CCN(S(=O)(=O)c3cccs3)CC2)c1=S	x	103	94	4
COc1ccc(CNCc2ccc(OC)c(C)c2)cc1	98	111	82	-12
Cc1cc(C)n2nc(C(=O)NC(C)(C)C)nc2n1	x	112	90	-11
O=C(COc1ccccc1)N(Cc1cccnc1)c1nc2ccc(F)cc2s1	105	134	86	x
NC1=NC(c2ccccc2)C(C(=O)c2ccccc2)N1 (stereo not drawn)	105	107	89	-48
CCc1ccc(O)c(C(=O)c2cnc3cc(-c4ccc(C)cc4)nn3c2)c1	108&101	83	83	-2&-29
Cn1c(=NC(=O)c2nc3ccccc3s2)sc2cc(S(C)(=O)=O)ccc21	98	99	92	-13
O=C(OCC1CCCN2CCCCC12)c1ccc(F)c(F)c1 (stereo not drawn)	x	100	94	0
CC1CCN(Cc2nc(-c3ccc(Cl)cc3)no2)CC1	104	102	88	-6
COCCCNC(=O)CSc1nc2ccccc2c(=O)n1Cc1ccco1	103	109	90	x
Brc1ccsc1-c1csc(-c2ccncc2)n1	100	x	x	-2
Cc1ccc(CN2c3ccccc3-c3nc(SCC(=O)Nc4ccccc4C)ncc3S2(=O)=O)cc1	109	x	x	-15
CCN(CC)C(=O)CSc1nc2ccccc2c(=O)n1Cc1ccc(C(=O)NC2CC2)cc1	100	96	84	1
N#Cc1ccc(C#CCOC(=O)Nc2ccc(Cl)cc2)cc1	111	97	77	-7
Cc1ccc(-c2[nH]ncc2CN(C)Cc2ccccc2)cc1	x	80	95	-6
Cc1ccc(N2CC(C(=O)Nc3ccc4c(c3)sc(=O)n4C)CC2=O)cc1 (stereo not drawn)	100	x	x	-6
Cc1ccc(CNC(=O)Nc2ccccc2)n1C	110	99	98	18
CCn1ccc2c(OCC(=O)Nc3ccccc3C(F)(F)F)cccc2c1=O	98	116	87	x
CCOC(=O)c1cc(Sc2ccccc2N)cc(C(=O)OCC)n1	104	104	97	-2
COc1ccc(-c2nc3cc(N=Cc4cccc(OC)c4O)ccc3o2)cc1	x	102	98	-10
C=CCSc1nc(N)c(C(=O)Nc2ccccc2C)cc1C(N)=O	99	105	97	6
CC(C)c1ccc(NC(=O)CSc2nc3nccnc3c(=O)n2Cc2ccccc2Cl)cc1	106	x	x	-41
CCOc1ccc(OCC)c(Nc2nc3ccccc3n3nnnc23)c1	102	102	80	-8
Cc1ccc(-c2cc(C(=O)N3CCC(C)CC3)no2)cc1	103	x	x	-12
Cc1nccc(-c2nn(-c3ccc(F)cc3)ccc2=O)n1	100	108	86	-31
Cc1cc(C)c2nc(N3CCC(C(=O)N4CC(C)CC(C)C4)CC3)sc2c1 (stereo not drawn)	107	105	80	x
COc1ccc(-c2cc(C(=O)OCC(=O)N(C)C)c3ccccc3n2)cc1	x	102	93	-54
COc1ccc(Nc2c(-c3ccsc3)nc3cnccn23)cc1OC	107	104	86	-7
COCCOC(=O)C1=C(C)NC(C)=C(C(=O)OCCOC)C1c1cn(-c2ccccc2)nc1-c1ccc([N+](=O)[O-])cc1	103	x	x	-14
CC1CCC(NC(=O)C2CCCN2S(=O)(=O)c2ccc3c(c2)n(C)c(=O)c(=O)n3C)CC1 (stereo not drawn)	101	108	92	-7
CCOC(=O)c1cnc2ccc(Cl)cc2c1Nc1ccc(OCC)cc1	101	104	86	-14
COc1ccccc1CNc1ccc(O)cc1	100	64	25	x
CCC(C)(C(=O)NC1CCCCC1)N(Cc1cccs1)C(=O)c1ccccn1 (stereo not drawn)	95	83	92	-6
CCOC(=O)Sc1ccc2ccccc2c1	106	86	105	-11
CCN(CC)C(=O)c1ccc2c(c1)N(CC(=O)N1CCCC1)C(=O)CO2	96	x	x	-2
Cc1ccc(-c2nnc3c4ccccc4c(C)nn23)cc1S(=O)(=O)NC(C)C	103	90	102	-3
O=C(CCCc1ccccc1)Nc1ccc(C(=O)O)cc1	107	99	85	-1
CCOC(CNc1nc(C)nc2sc3c(c12)CCCC3)OCC	101	90	82	x
COc1ccccc1CNC(=O)CCCN1C(=O)CCn2nc(-c3cn(C)c4ccccc34)cc21	102	73	83	x
OCC1(CO)CSC(Nc2ccc(F)cc2)=N1	96	91	87	33
O=C1c2ccccc2-c2nc3ncnn3c(-c3ccccc3Cl)c21	105	100	96	-68
Cc1ccc(NC(=O)CCS(=O)(=O)c2ccc(Br)cc2)c(C)c1	105	116	92	x
Cc1ccc(CNC(=O)c2cc(=O)[nH]c3ccc(S(=O)(=O)N4CCOCC4)cc23)cc1	101	94	101	7
COc1cccc(CN2CCN(C(=O)c3cccs3)CC2)c1	114	91	78	x
CCOC(=O)c1c(SC)nc2c(C(F)(F)F)cccc2c1N1CCCC1	101	96	86	-34
CS(=O)(=O)N(CC(=O)N1CCCCC1)c1sc2c(c1C#N)CCCC2	105	96	87	12
CNC(=O)COc1coc(CN2CCN(Cc3ccccc3)CC2)cc1=O	107	95	102	-3
Nc1ccccc1C(=O)NCC(F)(F)F	x	94	91	5

At a glance, some entries already given.
SMILES	GIV Gai3 FP	Sa growth 42C	Sa growth 42C second temp	HCMV NEC inh
O=C1c2ccccc2-c2nc3ncnn3c(-c3ccccc3Cl)c21	105	100	96	-68
Cc1ccc(NC(=O)CCS(=O)(=O)c2ccc(Br)cc2)c(C)c1	105	116	92	x
Cc1ccc(CNC(=O)c2cc(=O)[nH]c3ccc(S(=O)(=O)N4CCOCC4)cc23)cc1	101	94	101	7

Fetched by compound from above:
SMILES	GIV Gai3 FP	Sa growth 42C	Sa growth 42C second temp	HCMV NEC inh
Cc1ccc(NC(=O)CCS(=O)(=O)c2ccc(Br)cc2)c(C)c1	105	116	92	x
Cc1ccc(CNC(=O)c2cc(=O)[nH]c3ccc(S(=O)(=O)N4CCOCC4)cc23)cc1	101	94	101	7
